GALR2 ag – GALR2 (human) receptor agonism; O43603; GALR2-expressing cells, agonist activation read-out; activation, %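 (tested at 5 µM)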; hit rate 0.48% among 140,000; AID 803;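 active means above mean plus 3 SD of all compounds, about 5% in these data, not always enough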;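 further: 0% = vehicle buffer wells and 100% = reference agonist at full effect; tested in CHO reporter cells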
Target sequence (O43603 whole entry, looked up): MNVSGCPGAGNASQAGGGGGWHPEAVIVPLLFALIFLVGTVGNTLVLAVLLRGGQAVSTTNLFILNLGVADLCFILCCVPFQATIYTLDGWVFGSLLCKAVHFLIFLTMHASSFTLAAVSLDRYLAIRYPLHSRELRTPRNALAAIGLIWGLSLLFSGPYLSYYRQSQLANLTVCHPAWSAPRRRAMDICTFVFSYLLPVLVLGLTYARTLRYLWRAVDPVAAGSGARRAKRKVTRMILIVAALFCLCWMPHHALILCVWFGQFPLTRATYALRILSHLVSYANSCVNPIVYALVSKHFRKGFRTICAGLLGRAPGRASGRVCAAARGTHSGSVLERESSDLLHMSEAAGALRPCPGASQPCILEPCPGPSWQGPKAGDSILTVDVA
PKD1 inh – inhibitors of human PKD1 kinase. Q15139. PKD1 kinase fluorescence polarization assay. inhibition, %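 (about 10 µM by stock and volumes)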. hit rate 0.056% among 200,000. AID 797;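 active means inhibition of 50% or more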;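 further: controls were vehicle for no effect and a reference inhibitor for full effect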
HSV augment – increases HSV replication in cells. maximum fold increase. HSV replication augmentation in cells, fold increase. AID 1956. hit rate 0.005% among 220,000;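 active means peak rise of 1.5-fold or more in the series; inconclusive means self-fluorescent or not available for retest; tested in PC3 cells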;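 further: first round at 10 µM; read as green reporter fluorescence; hits show the peak of a series up to 25 µM; 1 = signal of infected wells without compound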
RGS16-Gao – RGS16-Galphao interaction regulator (human). O15492+P09471. bead-based flow cytometry RGS16-Galphao binding, fluorescence; actives lie on both sides. binding response (% of control), % at 10 µM. hit rate 0.38% among 220,000. AID 1441;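 active means below 25% or above 175%, edge rows of some plates excepted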;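 further: Galphao activated by GDP with aluminum fluoride before binding; 100% = wells without compound and 0% = beads without RGS; some results beyond the cut were filed as inactive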
Target sequence (O15492 whole entry, looked up): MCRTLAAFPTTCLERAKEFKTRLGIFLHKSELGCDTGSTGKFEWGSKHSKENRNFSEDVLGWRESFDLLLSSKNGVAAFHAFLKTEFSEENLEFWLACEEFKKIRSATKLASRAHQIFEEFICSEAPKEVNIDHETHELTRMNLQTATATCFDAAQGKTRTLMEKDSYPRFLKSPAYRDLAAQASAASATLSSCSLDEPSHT
Target sequence (P09471 whole entry, looked up): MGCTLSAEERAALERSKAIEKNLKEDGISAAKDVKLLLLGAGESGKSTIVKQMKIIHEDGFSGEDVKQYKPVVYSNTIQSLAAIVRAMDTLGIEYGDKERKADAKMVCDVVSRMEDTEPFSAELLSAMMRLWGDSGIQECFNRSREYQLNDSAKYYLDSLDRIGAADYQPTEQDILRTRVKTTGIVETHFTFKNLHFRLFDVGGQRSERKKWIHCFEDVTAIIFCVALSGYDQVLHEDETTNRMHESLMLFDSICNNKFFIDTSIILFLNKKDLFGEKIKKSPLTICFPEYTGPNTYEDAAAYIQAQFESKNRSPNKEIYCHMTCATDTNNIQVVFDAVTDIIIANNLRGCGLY
Insulin prom inh – TRM-6 insulin promoter activity inhibition; inhibition, % at 2 µM; TRM-6 cells (human fetal islet line), insulin promoter-eGFP reporter, imaging; reporter expression induced with tamoxifen; AID 1273; hit rate 0.9% among 130,000;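 active means inhibition above the mean plus 3 SD, with well images judged a real hit on visual review, cut at about 60% in these data, passing the limit was not always enough; inconclusive means inhibition over the cutoff but images rejected on review; inactive means inhibition not above the cutoff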
Insulin prom inh cell count – also measured in Insulin prom inh; calls as there; normalized cell count, %; measured here: cell count, toxicity; reference of the scale not given here;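 cells exposed to compound for 48 h; stained nuclei by imaging scaled within each plate; lower means fewer cells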
HSV augment primary fold – second read-out of HSV augment, no call of its own (marks repeat the call); fold increase; compound at 10 µM; measured here: primary screen fold increase 10 uM; tested in PC3 cells;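 GFP signal in the first replicate; 1 = infected wells without compound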
Active calls of the source: *; i = inactive; ? = inconclusive; . = no result given.

SMILES	GALR2 ag	PKD1 inh	HSV augment	HSV augment primary fold	RGS16-Gao	Insulin prom inh	Insulin prom inh cell count
C/C=C(\C)c1nnc(NC(=O)C(C)C)s1	1.3	-13	i	0.96	99	68	72
COc1ccc(NS(=O)(=O)c2cc(C)ccc2NC(=O)c2cc(C)oc2C)cc1	-1.1	-7	i	0.7	99	27	98
CCOc1cc(/C=N\Nc2nc(-c3ccc(C)cc3)c(NC(C)=O)s2)ccc1O	.	.	i	1.1	101	.	.
CCOn1c(SCC)nc2ccccc2c1=O	-0.8	-3	i	1	102	32	64
CN(CCO)c1ccc([N+](=O)[O-])cc1C(=O)O	-0.1	-2	i	0.71	99	4	65
Cc1ccc(N(CC(=O)Nc2ccc(F)cc2)S(=O)(=O)N2CCCC2)cc1	-0.2	-8	i	1.1	103	35	91
O=C1S/C(=C\c2ccc(N3CCOCC3)o2)C(=O)N1Cc1c(F)cccc1Cl	-1.3	-11	?	.	100	0	102
CC(C)c1ccc(/C=N/NC(=O)CN(c2cccc(Cl)c2Cl)S(C)(=O)=O)cc1	0.7	-2	i	0.87	105	.	.
COc1ccc(CCNC(=O)CN2CCOc3ccccc32)cc1OC	18*	-6	i	1.1	111	-50	83
CC1(C)C2C/C(=N\O)C(C)(/[N+]([O-])=C/c3cccc([N+](=O)[O-])c3)CC21 (stereo not drawn)	.	-3	i	0.95	98	.	.
CN(C)/C=N/c1nc2nccc(-c3ccccn3)n2n1	.	-3	i	0.89	102	-14	157
Cc1ccc(S(=O)(=O)N/N=C/c2ccccc2O)cc1[N+](=O)[O-]	.	-4	i	0.91	96	.	.
O=C(CSc1ncnc2c1oc1ccccc12)Nc1cccc(C(F)(F)F)c1	-0.9	4	i	0.92	100	.	.
Cc1ccc(NC(=O)CC2CS(=O)(=O)CC2CC(=O)Nc2ccc(C)c(C)c2)cc1C (stereo not drawn)	-2.6	-3	i	1	99	25	120
CNC(=O)/C=C1\NC(C)(C)Cc2c1ccc1ccccc21	0.2	4	i	0.92	106	-54	52

Laid out differently: 3 of the compounds above
structure,GALR2 ag,PKD1 inh,HSV augment,HSV augment primary fold,RGS16-Gao,Insulin prom inh,Insulin prom inh cell count
C/C=C(\C)c1nnc(NC(=O)C(C)C)s1,1.3,-13,i,0.96,99,68,72
CCOn1c(SCC)nc2ccccc2c1=O,-0.8,-3,i,1,102,32,64
Cc1ccc(NC(=O)CC2CS(=O)(=O)CC2CC(=O)Nc2ccc(C)c(C)c2)cc1C (stereo not drawn),-2.6,-3,i,1,99,25,120

Other entries follow:
SMILES	GALR2 ag	PKD1 inh	HSV augment	HSV augment primary fold	RGS16-Gao	Insulin prom inh	Insulin prom inh cell count
Oc1ccc(Cc2ncc(C(F)(F)F)cc2Cl)cc1	.	3	i	1	99	-12	130
CCOC(=O)c1c(NC(=S)NC(C)=O)sc(C)c1C	-0.6	-9	i	1	57	.	.
CCN(Cc1cnn(C)c1)C(=O)c1cc(COc2ccc(F)cc2F)on1	.	.	i	0.65	96	.	.
CN(CC(=O)Nc1ccc(F)c(F)c1F)C1CCCCC1	-1.1	-2	i	0.86	97	-7	89
CCOC(=O)C1(CC2CC2)CCN(Cc2ccc(OC)cc2F)CC1	.	1	i	0.97	101	-5	37
O=C(Nc1ncccn1)c1cc(-c2ccc(F)cc2)nc2ccccc12	.	-7	i	0.95	104	.	.
CC(Sc1nncn1C)C(=O)Nc1ccc(Cl)cn1 (stereo not drawn)	-0.2	6	i	0.93	97	-38	104
C=CCn1c(C2CCCCC2)n[nH]c1=S	.	-3	i	0.89	97	.	.
CC1CC2=C(C(=O)O1)C(c1ccc(Cl)cc1)Nc1ccccc1N2 (stereo not drawn)	0.5	1	i	1	89	52	100
Cn1c(=O)[nH]c(=O)c2c1nc(Br)n2CCC(=O)c1ccccc1	-2.3	0	i	0.99	101	.	.
COc1ccc(OCC(O)Cn2c(Nc3cccc(C)c3)nc3c2c(=O)n(C)c(=O)n3C)cc1 (stereo not drawn)	-3.0	-5	i	0.96	99	0	90
O=C(Cc1ccc(-n2c(=O)c3ccccc3n(CC(=O)Nc3ccc(F)cc3F)c2=O)cc1)NCc1ccco1	.	-2	i	0.78	96	.	.
CCCCOc1ccc(N=Nc2ccc(N)nc2N)cn1	.	.	i	1	99	.	.
Cn1c(SCC(=O)c2ccccc2)nnc1-c1cccs1	.	.	i	1.1	100	.	.
COc1cc(C(c2c(C)[nH][nH]c2=O)c2c(C)[nH][nH]c2=O)ccc1OC(=O)c1cccc([N+](=O)[O-])c1	0.6	-9	i	1.1	102	9	59

Three structures out of the list, arranged by heavy-atom count, lowest first:
SMILES	GALR2 ag	PKD1 inh	HSV augment	HSV augment primary fold	RGS16-Gao	Insulin prom inh	Insulin prom inh cell count
CN(CC(=O)Nc1ccc(F)c(F)c1F)C1CCCCC1	-1.1	-2	i	0.86	97	-7	89
Cn1c(=O)[nH]c(=O)c2c1nc(Br)n2CCC(=O)c1ccccc1	-2.3	0	i	0.99	101	.	.
CC1CC2=C(C(=O)O1)C(c1ccc(Cl)cc1)Nc1ccccc1N2 (stereo not drawn)	0.5	1	i	1	89	52	100

Further records.
SMILES	GALR2 ag	PKD1 inh	HSV augment	HSV augment primary fold	RGS16-Gao	Insulin prom inh	Insulin prom inh cell count
Cc1c(C(=O)Nc2ccccc2)sc2nc3n(c(=O)c12)CCCCC3	.	-4	i	1.1	96	.	.
O=C(Oc1ccc(C(=S)N2CCCCC2)cc1)c1ccccc1F	.	-5	i	1	78	.	.
Cn1cccc1Cc1nnc(SCC(=O)N2CCCc3ccccc32)n1-c1ccc(F)cc1	-0.7	-12	i	1	94	.	.
O=C(Cc1ccccc1)Nc1ccc(NC(=O)c2cccs2)cc1	.	8	i	0.88	56	-33	51
CC(C)CN(CC(C)C)S(=O)(=O)N1CCC(C(=O)NCc2cccs2)CC1	0.2	3	i	1	100	15	92
Cc1nnsc1-c1onc(C)c1C(=O)O/N=C/c1ccc(Cl)cc1	.	.	i	1.1	101	.	.
COC(=O)CCC(=O)NC(=S)Nc1cc(Cl)ccc1Cl	-2.7	12	i	0.88	98	.	.
CC(NC(=O)Cn1cccc1C(=O)c1ccccc1)c1ccc2c(c1)OCCO2 (stereo not drawn)	.	-2	i	1	102	.	.
CC(C)OC(=O)CN1CCN(C2c3ccccc3-c3ccccc32)CC1	-2.6	2	i	1.1	111	43	112
CC1CCCN(c2nc3ccccc3nc2C(C#N)S(=O)(=O)c2ccccc2)C1 (stereo not drawn)	-5.5	-5	.	.	99	.	.
Cc1onc(-c2ccccc2)c1C(=O)Nc1nc(-c2cc(F)ccc2F)cs1	-2.0	-4	i	0.83	98	.	.
CC1=NC(C)(C)Cc2ccccc21	-4.8	-8	i	0.98	101	16	71
O=C(NC1CCCCC1)[C@H](CSCc1ccccc1)N1Cc2ccccc2C1=O	-1.3	-9	i	0.88	.	5	78
CC(C)(C)c1nnc(NC(=O)CS(=O)(=O)Cc2ccccc2)s1	.	3	i	0.95	61	.	.
NC(N)=NC(=S)Nc1ccc(Cl)cc1	.	.	i	0.95	99	.	.
O=[N+]([O-])c1ccccc1OCCOc1ccccc1[N+](=O)[O-]	.	.	i	0.94	102	.	.
O=C(NCC1CCCO1)Nc1ccc2c(c1)OCO2 (stereo not drawn)	.	-4	i	1.1	99	.	.
O=S(=O)(c1cccc2cccnc12)N1CCN(c2ccccc2)CC1	-2.6	7	i	0.9	91	-26	38
CC(=O)Nc1ccc(S(=O)(=O)NCC(=O)NC(C)c2ccc(S(N)(=O)=O)cc2)cc1 (stereo not drawn)	.	.	i	1	96	.	.
C/C(=N\NC(=O)c1cccs1)C(C)(C)C	-1.3	-3	i	1	128	-10	83
O=C1C(c2ccc(F)cc2)N(Cc2ccc3c(c2)OCO3)C(=O)CN1C1CCCCCC1 (stereo not drawn)	0.5	4	i	0.83	81	29	113
CCCN(CCC)C(=O)C1CC(=O)OC12CCCCC2 (stereo not drawn)	.	3	i	1	103	.	.
Cc1onc(-c2ccccc2Cl)c1C(=O)Nc1ccc(-n2nncc2C(C)(C)C)cc1	-0.1	-5	i	0.9	110	-64	128
CCc1cccc(C)c1NC(=S)N(CCCN1CCOCC1)Cc1cccnc1	.	1	i	0.97	103	.	.
COC(=O)c1ccc(Cl)c(NC(=O)NC2CCCCC2)c1	-2.4	-5	i	0.88	93	0	116
CC(C)CC(=O)NC(=S)N(Cc1ccccc1)Cc1ccccc1	-0.2	-3	i	0.99	94	-29	140
O=C(Nc1ccc(-c2noc(CCc3ccccc3)n2)cc1)c1ccco1	0.2	9	i	1	94	.	.
CCN(CC)CCNC(=O)c1ccc(NC(=O)COc2ccccc2F)cc1	.	-1	i	0.62	118	.	.
c1ccc(Nc2nc3ccccc3n3nnnc23)cc1	.	1	i	1	103	.	.
O=C(CSc1ncn(-c2ccccc2)n1)Nc1nncs1	.	0	i	0.98	101	0	99
Cc1ccc(-c2cc(C(F)F)n3ncc(C(=O)NCc4ccco4)c3n2)cc1	-0.6	-13	i	0.98	101	.	.
COc1ccc(CCN2C(=O)CC(N3CCN(S(=O)(=O)c4ccccc4)CC3)C2=O)cc1 (stereo not drawn)	-0.6	5	i	0.91	100	-36	150
CCOC(=O)C1=C(C)N=C2SC(C(=O)OC)=CC(=O)N2C1c1cc(OC)c(OC)c(OC)c1 (stereo not drawn)	-2.9	0	i	1.1	110	.	.
Cc1cc(/C=N/n2cnnc2)c(C)n1-c1ccc2c(c1)OCO2	-0.6	0	i	1.3	84	50	116
CC(C)CNC(=O)C1CC(=O)OC12CCCCC2 (stereo not drawn)	-0.7	1	i	0.98	101	-91	105
CCn1c(CC(=O)Nc2cccc(Cl)c2Cl)nnc1SCCOc1ccc(OC)cc1	-1.0	-6	i	0.74	95	43	93
Cc1ccccc1CC(=O)c1ccc(O)c(C)c1O	.	-4	i	1.1	100	.	.
C=CCOc1ccc(/C=N/Nc2ccccn2)cc1OC	.	-3	i	0.89	102	60	59
CSc1nnc(-c2cccn(Cc3cccc(Cl)c3)c2=O)o1	.	-6	i	0.96	103	8	193
COC(=O)c1cc(NS(=O)(=O)c2ccc(OC)c(OC)c2)ccc1Cl	-2.5	-1	i	0.8	101	-204	122
Cc1nc(SC(C(=O)c2ccccc2)c2ccccc2)nc2ccccc12 (stereo not drawn)	0.1	0	i	1	101	-13	83
CC(C)n1c(NCc2ccc(N(C)C)cc2)nc2ccccc21	-1.7	-3	i	0.88	108	39	145
O=C(NCCCn1ccnc1)/C(=C\c1cccnc1)NC(=O)c1ccccc1F	.	-5	i	1	99	29	57
O=C(CN1CCCCCC1)N1c2ccccc2Sc2ccccc21	.	-1	i	0.98	92	14	89
COc1cc2c(cc1OC)C(c1ccncc1)CC(=O)N2 (stereo not drawn)	1.7	-2	i	0.92	102	46	142
CC(C)CC(COCc1cccc(Cl)c1)N1CCN(C(=O)c2cccc(C(F)(F)F)c2)CCC1=O (stereo not drawn)	-0.6	1	i	0.83	53	-5	69
O=S(=O)(/C=C/c1ccccc1)N1CCN(c2ccc(F)cc2)CC1	-2.6	2	i	0.95	104	12	162
FC(F)(F)c1nc2cc3nc4ccccc4[nH]c3cc2n1	.	.	?	.	101	.	.
O=S1(=O)CCN2C=C(Br)C=C(Br)C2=N1	-2.3	-13	i	0.86	132	13	94
O=C1C2ON(c3ccccc3)C(c3ccncc3)C2C(=O)N1c1ccc(Br)cc1 (stereo not drawn)	-2.0	-3	i	0.86	100	-23	101
Cc1noc(NC(=O)c2ccccc2C(F)(F)F)c1C#N	.	-6	i	0.92	101	.	.
Cc1ccc(NC(/C=C/N(C)C)=C/C(=O)C(F)(F)F)c(C)c1	.	1	i	0.96	104	52	70
Cc1cc(C)c2nc(-c3ccco3)cc(C(=O)O)c2c1	.	-3	i	1	108	-13	111
CCCCOP(=O)(OCCCC)C(O)c1ccc(F)cc1 (stereo not drawn)	.	.	i	0.95	104	.	.
Cc1cccc(NC(=O)c2ccc(N3CCOCC3)c([N+](=O)[O-])c2)n1	.	-2	i	1.1	107	.	.
O=C1N=C(N2CCOCC2)S/C1=C/c1ccc(-c2ccc(F)cc2)o1	.	-2	i	0.85	102	.	.
CCOc1ccc(C(c2c(C)[nH][nH]c2=O)c2c(C)[nH][nH]c2=O)cc1OCC	-0.3	0	i	0.99	105	-30	92
Cc1csc(Sc2ccc([N+](=O)[O-])cc2C(=O)OCC(=O)NC2CCCC(C)C2C)n1 (stereo not drawn)	-2.1	-4	i	0.91	97	53	106
CCn1c(SCC(=O)Nc2cc(C)on2)nnc1-c1c[nH]c2ccccc12	.	3	i	0.88	102	.	.

High-throughput results from PubChem.
